Screening data deposited in PubChem by Broad Institute.
rRNA inh HTS: selective bacterial rRNA inhibition in E. coli; E. coli WT GFP vs humanized-ribosome RFP mutants, fluorescence, 24 h; active compounds read low; DMSO median 0, no signal -100; GFP signal change (wild-type ribosome), % (no concentration beside the values); hit rate 1.6% among 350,000; AID 720706;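 active = significant combined selectivity score with lowered wild-type GFP, culture density cut under 30%, mutant RFP and density less affected; inactive = any of these conditions unmet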; also: one replicate is shown; some compounds called inactive have numbers as strong as hits
rRNA inh HTS OD600: further read-out of rRNA inh HTS, marked with its call; OD600 change, %; measured here: OD600 growth;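 optical density of the mix in the first replicate; 0 = DMSO median and -100 = no signal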
rRNA inh HTS RFP: second read-out of rRNA inh HTS, no call of its own (marks repeat the call); RFP signal change, %; measured here: RFP humanized mutant strains;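 first replicate; 0 = DMSO median and -100 = no signal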
* hit, by the source's call; & = joins results of further samples.

No. | rRNA inh HTS | rRNA inh HTS OD600 | rRNA inh HTS RFP | molecule
1 | -0.1&4.8 | 6.8&-5.1 | 2.4&-4.1 | C[C@H]1CN([C@@H](C)CO)S(=O)(=O)c2ccc(Br)cc2O[C@H]1CN(C)C(=O)Cc1ccccn1
2 | 4.5 | 7.4 | -1.8 | CN(C)CC#Cc1ccc([C@H]2[C@H]3CN(C(=O)Nc4ccc(F)cc4)CCCCN3[C@H]2CO)cc1
3 | 1.5 | 5.6 | -4.0 | C[C@H]1CN([C@@H](C)CO)C(=O)c2cccc(N(C)C)c2O[C@@H]1CN(C)Cc1ccc(C(F)(F)F)cc1
4 | -0.2 | 4.0 | 0.3 | CC(C)NC(=O)Nc1cccc2c1O[C@@H](CN(C)C(=O)Nc1ccc(F)cc1)[C@@H](C)CN([C@H](C)CO)C2=O
5 | -22.4* | -12.9* | 4.1* | Cc1cccc(C)c1NC(=O)C1(C)CSCC(=O)N1CCOc1ccccc1 (stereo unspecified)
6 | -2.7 | -6.4 | -2.0 | CC(C)CC#Cc1ccc2c(c1)O[C@H](CN(C)C(=O)c1ccccn1)[C@H](C)CN([C@H](C)CO)S2(=O)=O
7 | 1.2 | 6.2 | -0.9 | COCc1cn(CC[C@@H]2CC[C@H](NC(=O)Nc3ccc(Cl)cc3)[C@@H](CO)O2)nn1
8 | -4.9 | -2.4 | 3.7 | C[C@@H]1CN([C@H](C)CO)C(=O)Cc2cc(NC(=O)Cc3cn(C)c4ccccc34)ccc2O[C@@H]1CN(C)CC1CCCCC1
9 | 0.7 | 11.9 | 1.1 | Cc1noc(C)c1NC(=O)Nc1ccc2c(c1)C(=O)N([C@@H](C)CO)C[C@@H](C)[C@@H](CN(C)Cc1ccncc1)OCCCC[C@H](C)O2
10 | -5.5 | -4.2 | 2.0 | CCC(=O)N1C[C@H](C)[C@@H](OC)CN(C)C(=O)c2ccc(NC(=O)Nc3ccccc3)cc2OC[C@H]1C
11 | -23.0 | -45.8 | -9.6 | Cc1ccccc1-c1csc(C(O)c2ccc(F)c(F)c2)n1 (stereo unspecified)
12 | -4.0 | -5.7 | 0.1 | COCCN(Cc1ccc(OC)cc1)c1c(C)nc2ccc(C(=O)Nc3ccc(NC(C)=O)cc3)cn12
13 | 0.1 | 2.9 | -3.3 | O=C([C@@H]1N[C@@H]2c3ccc(-c4ccc(F)cc4)c(=O)n3C[C@@H]2[C@H]1CO)N1CCOCC1
14 | 4.6 | 3.7 | 0.1 | C[C@H](CO)N1C[C@H](C)[C@@H](CN(C)Cc2ccc(C(=O)O)cc2)OCCCC[C@H](C)Oc2ccc(NS(C)(=O)=O)cc2C1=O
15 | 0.0 | 2.4 | 0.0 | CC(=O)NC[C@H]1[C@@H](c2ccc(C#CC(C)C)cc2)[C@@H](CO)N1Cc1ccccn1
16 | 7.6 | 3.5 | 2.8 | CNC[C@@H]1Oc2ncc(C#Cc3ccccc3F)cc2C(=O)N([C@H](C)CO)C[C@@H]1C
17 | 3.9 | 13.8 | 0.3 | CN(C)CC(=O)N1CCCCN2[C@H](CO)[C@H](c3ccc(-c4ccccc4)cc3)[C@@H]2C1
18 | -4.4 | -14.8 | 0.0 | O=C(C[C@H]1CC[C@@H]2[C@H](COC[C@H](O)CN2Cc2ccc(F)cc2)O1)NCCc1ccccc1
19 | -3.6 | -4.4 | -1.1 | C[C@@H]1CN([C@@H](C)CO)C(=O)c2cc(Br)cnc2O[C@H]1CN(C)S(=O)(=O)c1ccc(F)cc1
20 | 0.4 | -3.4 | -0.9 | COC(=O)[C@@H](NS(=O)(=O)c1ccc(F)cc1Br)C(C)C
21 | 1.1 | 6.6 | -0.9 | O=C(C[C@H]1CC[C@H](NC(=O)C2CC2)[C@H](CO)O1)Nc1ccccc1
22 | 1.5&-1.9 | 10.3&-2.2 | -2.6&0.5 | COc1ccccc1CN(C)C[C@@H]1OCc2cnnn2CCCC(=O)N([C@@H](C)CO)C[C@H]1C
23 | 3.3 | 10.9 | -2.8 | O=S(=O)(Cc1ccccc1)N1CCCCN2[C@H](C1)[C@H](c1ccc(C#Cc3ccccc3)cc1)[C@@H]2CO
24 | -1.3 | 3.4 | 1.3 | C[C@H]1CN([C@@H](C)CO)S(=O)(=O)c2ccc(-c3ccc(F)cc3)cc2O[C@@H]1CN(C)Cc1ccccc1C(=O)O
25 | -2.4 | -0.7 | 2.2 | Cc1ccc(NC(=O)c2cc(S(=O)(=O)N3CCCCC3)ccc2N2CCOCC2)cc1
26 | -0.4 | 8.5 | 0.2 | O=C(N[C@H]1CC[C@H](CCNS(=O)(=O)c2ccccc2Cl)O[C@@H]1CO)c1ccc(F)cc1
27 | 3.4 | -11.1 | 4.3 | C[C@@H]1CCCCO[C@@H](CN(C)Cc2ccc3c(c2)OCO3)[C@H](C)CN([C@@H](C)CO)C(=O)c2cc(NS(=O)(=O)c3ccc(Cl)cc3)ccc2O1
28 | -2.1 | -5.4 | 0.6 | CCNC(=O)[C@H]1[C@H](CO)[C@H]2Cn3c(ccc(-c4ccc(OC)cc4)c3=O)[C@@H]1N2CC1CC1
29 | 3.5 | 6.4 | -3.4 | CCCN(C)C[C@H]1Oc2cc(C#C[C@@H](C)O)ccc2S(=O)(=O)N([C@H](C)CO)C[C@H]1C
30 | 7.5 | 10.0 | 1.3 | CCN1C(=O)N[C@H]2C[C@H](C(=O)N3CCCC3)[C@H](C)[C@H](c3ccccc3)C[C@H]21
31 | 3.1 | 7.8 | -5.5 | COc1ccc(C#Cc2ccc3c(c2)O[C@H](CN(C)S(=O)(=O)c2ccccc2F)[C@@H](C)CN([C@@H](C)CO)S3(=O)=O)cc1
32 | -0.4 | -9.1 | 11.9 | C[C@@H]1CN([C@@H](C)CO)C(=O)c2cc(NS(=O)(=O)c3ccc(F)cc3)ccc2O[C@@H](C)CCCCO[C@H]1CN(C)CC1CCCCC1
33 | 1.3 | 2.5 | 2.0 | CC(C)NC(=O)Nc1ccc2c(c1)C(=O)N([C@@H](C)CO)C[C@H](C)[C@H](CN(C)C(=O)Nc1cccc3ccccc13)O2
34 | -1.5 | -2.7 | 1.8 | C[C@H](CO)N1C[C@H](C)[C@@H](CN(C)C(=O)Nc2ccc(F)cc2)Oc2ncc(C3=CCCCC3)cc2C1=O
35 | 1.8 | -4.7 | 0.9 | COc1ccc(S(=O)(=O)N(C)C[C@H]2Oc3ncc(C#CC4(O)CCCC4)cc3C(=O)N([C@H](C)CO)C[C@H]2C)cc1
36 | -1.0 | -10.2 | -2.0 | COc1ccccc1-c1cnc2c(c1)C(=O)N([C@H](C)CO)C[C@H](C)[C@H](CN(C)Cc1ccncc1)O2

12 compounds from above, sorted by molar mass, smallest number first.
No. | rRNA inh HTS | rRNA inh HTS OD600 | rRNA inh HTS RFP | molecule
15 | 0.0 | 2.4 | 0.0 | CC(=O)NC[C@H]1[C@@H](c2ccc(C#CC(C)C)cc2)[C@@H](CO)N1Cc1ccccn1
13 | 0.1 | 2.9 | -3.3 | O=C([C@@H]1N[C@@H]2c3ccc(-c4ccc(F)cc4)c(=O)n3C[C@@H]2[C@H]1CO)N1CCOCC1
7 | 1.2 | 6.2 | -0.9 | COCc1cn(CC[C@@H]2CC[C@H](NC(=O)Nc3ccc(Cl)cc3)[C@@H](CO)O2)nn1
26 | -0.4 | 8.5 | 0.2 | O=C(N[C@H]1CC[C@H](CCNS(=O)(=O)c2ccccc2Cl)O[C@@H]1CO)c1ccc(F)cc1
36 | -1.0 | -10.2 | -2.0 | COc1ccccc1-c1cnc2c(c1)C(=O)N([C@H](C)CO)C[C@H](C)[C@H](CN(C)Cc1ccncc1)O2
23 | 3.3 | 10.9 | -2.8 | O=S(=O)(Cc1ccccc1)N1CCCCN2[C@H](C1)[C@H](c1ccc(C#Cc3ccccc3)cc1)[C@@H]2CO
19 | -3.6 | -4.4 | -1.1 | C[C@@H]1CN([C@@H](C)CO)C(=O)c2cc(Br)cnc2O[C@H]1CN(C)S(=O)(=O)c1ccc(F)cc1
33 | 1.3 | 2.5 | 2.0 | CC(C)NC(=O)Nc1ccc2c(c1)C(=O)N([C@@H](C)CO)C[C@H](C)[C@H](CN(C)C(=O)Nc1cccc3ccccc13)O2
35 | 1.8 | -4.7 | 0.9 | COc1ccc(S(=O)(=O)N(C)C[C@H]2Oc3ncc(C#CC4(O)CCCC4)cc3C(=O)N([C@H](C)CO)C[C@H]2C)cc1
14 | 4.6 | 3.7 | 0.1 | C[C@H](CO)N1C[C@H](C)[C@@H](CN(C)Cc2ccc(C(=O)O)cc2)OCCCC[C@H](C)Oc2ccc(NS(C)(=O)=O)cc2C1=O
32 | -0.4 | -9.1 | 11.9 | C[C@@H]1CN([C@@H](C)CO)C(=O)c2cc(NS(=O)(=O)c3ccc(F)cc3)ccc2O[C@@H](C)CCCCO[C@H]1CN(C)CC1CCCCC1
27 | 3.4 | -11.1 | 4.3 | C[C@@H]1CCCCO[C@@H](CN(C)Cc2ccc3c(c2)OCO3)[C@H](C)CN([C@@H](C)CO)C(=O)c2cc(NS(=O)(=O)c3ccc(Cl)cc3)ccc2O1

Further records
No. | rRNA inh HTS | rRNA inh HTS OD600 | rRNA inh HTS RFP | molecule
37 | -2.3 | -7.9 | 2.4 | COc1ccc(S(=O)(=O)Nc2ccc3c(c2)CC(=O)N([C@@H](C)CO)C[C@@H](C)[C@H](CN(C)Cc2ccncc2)O3)cc1
38 | 1.9 | 6.2 | -2.2 | O=C(C[C@H]1CC[C@@H](NC(=O)c2ccccc2)[C@H](CO)O1)NCc1ccncn1
39 | 0.9 | 5.4 | 0.4 | COCC(=O)Nc1ccc2c(c1)C(=O)N(C)C[C@H](OC)[C@H](C)CN(Cc1ccncc1)[C@H](C)CO2
40 | 1.0 | 13.0 | -4.0 | CCN1CCN(C(C(=O)NC2CCCCC2)c2ccnc3ccccc23)CC1 (stereo unspecified)
41 | 2.3 | 7.2 | -3.4 | CC=Cc1ccc2n(c1=O)C[C@H]1[C@H](CO)[C@@H](C(=O)NCC(F)(F)F)N(CC3CC3)[C@@H]21 (mixture of isomers)

These rows are one share of the data; the hit share may differ from the screen's.
